Source: PubChem BioAssay
Biofilm kill mix: mixtures killing C. albicans biofilm; 0.02% of 120,000 active; inhibition, % at 7.6 µM; C. albicans biofilm persisters + clotrimazole, fluorescence viability; primary screen in compound mixtures of four per well; AID 1242;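 active = inhibition above 30.3% in the primary screen of four-compound pools, then above 30% when the compound was retested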;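 also: compounds exposed to preformed 24 h biofilms for 48 h; the number belongs to the whole pool; some results filed as inactive read as strong as hits; inactives centre near 12; 0% = biofilm with clotrimazole alone and 100% = kill control; retested singly at about 60 µM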
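Test system: C. albicans CAF4-2 wild-type biofilms; buffer or medium: RPMI/MOPS medium, pH 7.0; schedule: 24 h biofilm formation, then 48 h compound exposure, 37 °C; detection: Alamar Blue fluorescence; measure: percent inhibition of biofilm viability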
* marks the source's active call; other numbers are inactive results. Only part of the results is shown. The share of hits here may be higher or lower than overall.

SMILES	Biofilm kill mix
CCO[C@@H]1OC(C(=O)N2CCN(C)CC2)=C[C@H](c2ccc(C(F)(F)F)cc2)[C@H]1CCCO	19.6
Cc1cc(NC(=O)Cn2c(=O)n(CCCCC(=O)NC3CCN(Cc4ccccc4)CC3)c(=O)c3ccccc32)n[nH]1	18.6
COc1ccc(NC(=S)Nc2cccc(Cl)c2Cl)cc1OC	2.4
Cc1cc(NCc2ccccn2)n2ncc(-c3ccccc3)c2n1	17.8
CC(NC(=O)c1ccc(Br)s1)c1ccncc1 (stereo not drawn)	5.0
CCN(CC)c1ccc(N)cc1S(=O)(=O)Nc1ccccc1OC	19.2
NC(=O)c1ccsc1NC(=O)CSc1nnc2ccccn12	8.7
Nc1cc2c3c(cccc3c1)C(=O)N(CCN1CCCC1)C2=O	0.4
Cc1sc2nc(CSCC(=O)Nc3ccccc3C#N)[nH]c(=O)c2c1C	1.4
CSc1ccccc1NC(=O)CN(C)C(C)C(=O)Nc1ccc(C#N)cc1 (stereo not drawn)	16.3
CCCc1cc(=O)[nH]c(SCC(=O)N2CCN(S(=O)(=O)c3ccc(C)cc3C)CC2)n1	14.2
Cc1cc(Cl)ccc1OCc1cn2cccnc2n1	4.0
COc1cnc(-c2cccc(C(F)(F)F)c2)[nH]c1=O	19.5
Cc1ccc(-c2csc(NC(=O)Cc3ccc(F)cc3)n2)o1	1.4
Cc1cccc(C)c1NC(=O)CN1C(=O)NC(C)(CCc2ccccc2)C1=O (stereo not drawn)	11.0
O=C1NC(c2ccc(-c3ccccc3[N+](=O)[O-])o2)C(C(=O)c2ccccc2)C(O)(C(F)(F)F)N1 (stereo not drawn)	18.3
CC(C)OCc1c(C(=O)OC/C(O)=C(\C#N)c2nc3ccccc3[nH]2)oc2ccccc12	16.3
CC(=O)c1cccc(Nc2ccc(-c3ccccc3F)nn2)c1	10.8
CCC(=NCCc1c(C)[nH]c2ccc(C)cc12)C1=C(O)CC(c2ccccc2)CC1=O (stereo not drawn)	14.7
CC(/C=C/c1ccccc1)=N\NC(=O)c1ccc2c(c1)OCCO2	9.0
O=C(NC1CCCC1)C(=O)N(Cc1cccnc1)C(C(=O)NCC1CCCO1)c1ccco1 (stereo not drawn)	20.8
CCC(=O)N1CCc2cc(S(=O)(=O)CCC(=O)NCc3ccco3)ccc21	-1.0
Cc1nn(-c2ccccc2)c(C)c1C(=O)NNC(=O)C(F)(F)F	21.7
Cc1nc2c(ccc3nc(NC(=O)Cc4ccccc4)sc32)s1	1.7
O=C(NS(=O)(=O)c1ccccc1Cl)c1ccc[nH]1	8.0
CCOC(=O)NN1C(=O)c2ccccc2NC12CCCC2	8.3
Cc1cccc(C(=O)NCCNc2nc3cc(C)c(C)cc3cc2C)c1	9.6
COc1ccc(OCC(=O)N2N=C(C(F)F)CC2(O)C(F)F)cc1 (stereo not drawn)	13.3
COc1ccccc1C(=O)Nc1ccc(OCc2nnc3c4ccccc4c(C)nn23)cc1	13.9
S=c1[nH]nc(-c2ccn[nH]2)n1-c1ccccc1Cl	28.8

Shown with bars between the fields: 5 of the compounds above
Molecule | Biofilm kill mix
O=C(NS(=O)(=O)c1ccccc1Cl)c1ccc[nH]1 | 8.0
CCOC(=O)NN1C(=O)c2ccccc2NC12CCCC2 | 8.3
Cc1cccc(C(=O)NCCNc2nc3cc(C)c(C)cc3cc2C)c1 | 9.6
COc1ccc(OCC(=O)N2N=C(C(F)F)CC2(O)C(F)F)cc1 (stereo not drawn) | 13.3
COc1ccccc1C(=O)Nc1ccc(OCc2nnc3c4ccccc4c(C)nn23)cc1 | 13.9

Some of these compounds in order of molar mass, low to high.
SMILES	Biofilm kill mix
S=c1[nH]nc(-c2ccn[nH]2)n1-c1ccccc1Cl	28.8
O=C(NS(=O)(=O)c1ccccc1Cl)c1ccc[nH]1	8.0
CCOC(=O)NN1C(=O)c2ccccc2NC12CCCC2	8.3
Cc1nc2c(ccc3nc(NC(=O)Cc4ccccc4)sc32)s1	1.7
COc1ccc(OCC(=O)N2N=C(C(F)F)CC2(O)C(F)F)cc1 (stereo not drawn)	13.3
COc1ccccc1C(=O)Nc1ccc(OCc2nnc3c4ccccc4c(C)nn23)cc1	13.9

New compounds follow.
SMILES	Biofilm kill mix
N#Cc1c(-c2ccco2)ccn(Cc2cccc(F)c2)c1=O	16.6
O=C(CSc1ccc(-c2cccs2)nn1)Nc1ccccc1	9.2
COc1cc(/C=C/C(=O)OCC(=O)N2CCOCC2)ccc1OCC#N	2.9
O=C(NCCc1ccc(Cl)cc1)C1CCC(CNc2nc(=S)[nH]c3ccccc23)CC1 (stereo not drawn)	-3.8
Cc1ccc(-c2noc(COc3ccc4c(c3)OCO4)n2)cc1	13.4
CN(C)C1=C(Cl)C(=O)N(c2ccc(Cl)c(Cl)c2)C1=O	4.7
CC1=C(C)CC(C(=O)Nc2nc(-c3ccc(F)cc3)c(C)s2)C(C(=O)O)C1 (stereo not drawn)	4.6
C/C(=N\NC(=O)c1cccc(N/N=C(\C)c2cc(O)ccc2O)c1)c1cc(O)ccc1O	-24.7
Cc1cc(C(=O)C(=O)O)c(C)n1-c1ccc(Cl)c(Cl)c1	16.0
CCOC(=O)C1(CCOc2ccccc2)CCN(Cc2ccc(NC(C)=O)cc2)CC1	8.3
CCC(C)c1ccccc1NC(=O)C(C)N(C)Cc1cccc(OC)c1 (stereo not drawn)	5.4
CNc1cc(C)nc(N2CCOCC2)n1	16.6
O=Cc1ccc(N2CCCCC2)cc1	20.5
COCCSc1ccccc1C(=O)N1CCCC(C)C1 (stereo not drawn)	8.7
O=c1[nH][nH]c(C(F)(F)F)c1C=NCc1cccs1	8.4
O=C(COc1ccccc1)NNC(=S)NC(=O)c1ccc(Cl)cc1Cl	13.0
CC1=NNC(=O)C1CC(=O)N/N=C(/C)c1cccc([N+](=O)[O-])c1 (stereo not drawn)	0.9
CCc1ccc(NC(=O)C(=O)NCC2CCCO2)cc1 (stereo not drawn)	11.7
CC(C)(C)c1ccccc1NC(=O)c1c(O)c2cccc3c2n(c1=O)CC3	10.1
CCN(CC)S(=O)(=O)c1cccc(C(=O)Nc2nc3cc4c(cc3s2)OCCO4)c1	5.8
N#CCCN(Cc1ccccc1)C(=S)Nc1ccc(F)cc1	22.2
COc1cc(/C=C/C(=O)OCC(=O)Nc2cc(C(F)(F)F)ccc2N2CCOCC2)ccc1O	21.5
S=c1[nH]nc(CCc2nc3ccccc3[nH]2)n1-c1cccc(Cl)c1	20.7
O=c1c2cc(NC(=S)NCCCN3CCC(Cc4ccccc4)CC3)ccc2nc2n1CCCCC2	6.8
COc1ccc2c(c1)CCC1C2=NN(/C(C)=C/C(C)=O)C1c1cccc(F)c1 (stereo not drawn)	24.1
Cn1cnc([N+](=O)[O-])c1Sc1ccc(Br)cc1	10.1
O=C(CNC(=O)c1ccc(Cl)cc1)OCc1nc2ccccc2s1	15.4
CCN(CC)c1ccc(/C=N/N=C(N)N)c(O)c1	-1.2
CCOC(=O)c1cnc2ccc(Cl)cc2c1Nc1ccc(S(=O)(=O)Nc2ncccn2)cc1	10.6
CCCCC1=CC2=CC(=O)C(C)(OC(=O)CC)C(=O)C2=CN1CCCCO (stereo not drawn)	12.7
CC1(C(=O)O)CCC(C(N)=O)C1(C)C (stereo not drawn)	14.2
Cc1ccc(C(=O)N2CCC(C(=O)NCc3cccnc3)CC2)cc1	3.0
CCOC(=O)CN1C(c2ccccc2O)Nc2ccc(Br)cc2C1c1ccccc1 (stereo not drawn)	9.1
Cc1c(C)n(CC(O)CNc2ccccc2)c2ccccc12 (stereo not drawn)	4.6
COc1ccc(Cl)cc1NC(=O)N1CCC(C)CC1	34.6
O=C(O)CC1S/C(=N\N=C2CCCCCCC2)N(c2ccccc2)C1=O (stereo not drawn)	15.6
CC1(C)C(=O)NCCN1C(=O)CCCC(=O)O	14.9
COc1ccc(/C=N/NC(=O)C2(C)NC(C)(C)Cc3ccccc32)cc1 (stereo not drawn)	5.1
CC(C)NC(=S)N1CCN(C/C=C/c2ccccc2)CC1	14.5
O=C(COC(=O)COc1ccccc1)NC1CCCc2ccccc21 (stereo not drawn)	25.6
O=c1cc(CN2CCN(S(=O)(=O)c3ccccc3[N+](=O)[O-])CC2)nc2sccn12	8.9
CC(C)(C)c1ccc(Oc2ccc(N)cn2)cc1	15.0
CC(C)CC(NC(=O)CCl)c1ccccc1 (stereo not drawn)	6.0
OCC1(CCOc2ccccc2)CCN(Cc2cn[nH]c2-c2ccc(F)cc2)CC1	6.4
CCC(Sc1nc2ncnc(N)c2[nH]1)C(=O)O (stereo not drawn)	2.9
Cc1nc(CSc2ccc(Cl)cc2)cc(N2CC(C)OC(C)C2)n1 (stereo not drawn)	13.3
Cc1ccc(CNC(=O)C2CC(c3cc(C(F)(F)F)cc(C(F)(F)F)c3)=NO2)o1 (stereo not drawn)	13.5
CCc1ccccc1NC(=O)CC(c1ccc(OC)cc1)n1cccc1 (stereo not drawn)	2.9
COc1ccccc1NC(=S)NN1CCN(C)CC1	11.5
CCN(CC)S(=O)(=O)c1ccc(N2CCOCC2)c(NC(=O)Cc2ccc(Cl)cc2)c1	21.9

Carrying on:
SMILES	Biofilm kill mix
CC(=O)N1CCN(C(=S)c2ccc(Cl)cc2)CC1	9.0
CCN(CC)c1ccc2cc(C(=O)NNC(=O)c3ccc(S(=O)(=O)N4CCCCC4)cc3)c(=O)oc2c1	-2.9
COc1cc(O)c(C(CC(=O)N2CCN(c3ccccc3)CC2)c2ccc(N(C)C)cc2)c(OC)c1 (stereo not drawn)	14.3
Cn1c(N)c(C(=O)COC(=O)c2ccnc3ccccc23)c(=O)n(C)c1=O	9.4
CN(C)/C=C/C(=O)c1ccc(Cl)cc1Cl	17.2
CN(CCC#N)C(=O)COC(=O)c1cccnc1Nc1ccccc1F	20.3
Cc1c(-c2cccc(NC(=O)c3ccco3)c2)nc2ncccn12	-14.6
Cc1c(C(=O)NC(Cc2ccccc2)c2nc3ccccc3[nH]2)cccc1[N+](=O)[O-] (stereo not drawn)	4.0
CCc1ccc(-c2cc(C(=O)NCc3ccccn3)c3ccccc3n2)cc1	-10.1
CC(=O)NCc1ccc(C(=O)CCl)cc1	10.2
CCOc1ccc(NC(=O)NC(=O)N(C(C)C)S(C)(=O)=O)cc1	19.8
CCOC(=O)C1CCN(S(=O)(=O)c2ccc(C)c(C)c2)CC1	18.4
CCCCn1c(=O)c(CCC(=O)OCC(=O)Nc2cccc3ccccc23)nc2ccccc21	0.4
Cc1cc(F)ccc1NC(=O)C(C)n1c2ccccc2c2nc(=O)cc(C)n21 (stereo not drawn)	20.5
CC(=O)c1cc(CN2CCN(C(C)C)C(CCO)C2)cs1 (stereo not drawn)	-11.2
CC1CCC(N2CCNCC2)CC1 (stereo not drawn)	18.7
Nc1cc(Cl)nc(N/N=C/c2c(O)ccc3ccccc23)n1	5.5
Cc1ccc(OCC(=O)Nc2ccccc2Sc2ccccc2)c([N+](=O)[O-])n1	8.8
CC(=O)NC(=S)NNC(=O)CCc1ccccc1	0.7
COc1ccc(C2OC(=O)CC2C(=O)NCc2ccccc2Cl)cc1OC (stereo not drawn)	2.9
COc1ccc(C(=O)NCC(=O)N/N=C/c2c(C)[nH]c3ccccc23)cc1OC	6.5
COc1ccc(-c2cn3cccnc3n2)cc1Br	3.1
COc1ccc(CCN=Cc2c(C)[nH]n(-c3ccc([N+](=O)[O-])cc3)c2=O)cc1OC	9.8
CCn1c(CNC(=O)c2ccccc2)nnc1SCC(=O)N1CCN(c2ccccc2)CC1	11.0
Cc1ccc(C)n1-c1ccc(C(=O)NC2CCN(Cc3ccccc3)CC2)cc1	5.3
COCCC(=O)N1CCCC(C(=O)c2ccc(Oc3ccccc3)cc2)C1 (stereo not drawn)	9.0
Cc1ccc(C2=NN(C(=O)c3ccco3)C(O)(C(F)(F)F)C2)cc1 (stereo not drawn)	18.1
CCCN1CCC(NC(=S)Nc2ccc([N+](=O)[O-])cc2)CC1	-0.2
Cc1ccc(NC(=O)Cn2cccc2)cc1	25.9
O=S(=O)(Nc1ccc(-n2cccc2)cc1)c1ccc(F)cc1	14.4
CC(OC(=O)c1ccncc1)C(=O)NC1CCCC1 (stereo not drawn)	15.7
CCN(C(=O)c1cc2c(C)nc3ccccc3c2o1)c1cc(Cl)ccc1OC	4.9
O=C(CN1CCN(c2ccccc2)CC1)Nc1ccc2c(c1)CCC2	12.8
COc1cccc(NC(=O)CSc2nc3ccccc3n2C)c1	10.9
Cc1c(NS(=O)(=O)c2ccc(C(=O)NCc3ccccc3)cc2)c(=O)n(-c2ccccc2)n1C	11.3
CN1C(=O)C2C(c3ccc(N(C)C)cc3)NN(Cc3ccccc3)C2C1=O (stereo not drawn)	3.6
Cc1nc(-c2ccc(S(=O)(=O)N3CCN(Cc4ccccc4)CC3)s2)cs1	23.2
Cc1cc(C(C)(C)C)cc(S(=O)(=O)Nc2ccc(C(=O)O)cc2)c1C	10.4
CCOC(=O)c1c(C)[nH]c(C(=O)OCCOc2ccc(Cl)cc2)c1C	12.9
CCN(CC)S(=O)(=O)c1ccc(C)c(NC(=O)Cn2cnc3cc([N+](=O)[O-])ccc3c2=O)c1	4.8
Cc1ccccc1/C=C/c1nc2ccccc2c(=O)n1CCc1ccccc1	18.2
Cc1cccc(C)c1NC(=O)CSc1nnc(Cc2ccccc2)o1	9.9
CCOC(=O)C1(CC2CC2)CCN(C(=O)c2cc(C3CC3)nc3ccccc23)CC1	11.6
CCOC(=O)C1=NOC(Cn2cc(C#N)c(=O)n(C)c2=O)C1 (stereo not drawn)	9.3
CCOc1ccccc1C(=O)Nc1ccc(-n2nncc2C(C)(C)C)cc1	5.5
COC(=O)CSc1nc(C)c(C(=O)Nc2ccccc2C)c(-c2ccc(Cl)cc2)c1C#N	9.7
Cc1ccc(NC(=S)N(CCN2CCOCC2)Cc2cc3cc4c(cc3[nH]c2=O)OCCO4)cc1	27.2
CC(C)c1ccccc1NC(=O)COC(=O)CCN1C(=O)/C(=C\C=C\c2ccccc2)SC1=S	9.8
CC(C)N(C(=O)COC(=O)[C@H](C)NC(=O)c1ccco1)c1ccccc1	13.7
